Source: PubChem BioAssay (several laboratories)
Mtb H37Rv = M. tuberculosis H37Rv growth inhibitors, H37Rv strain (AID 1626); inhibition, % at 10 µM; hits with a dose series show IC50 in µM; hit rate 0.95% among 220,000; M. tuberculosis H37Rv growth inhibition; higher % means a stronger effect;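 active = confirmed in a dose series; inconclusive = inhibition above 80% but not taken into the dose series; inactive = below 80% or under 30% at every dose of the series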;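 note: bacteria incubated seven days before Alamar blue readout; 0% = bacteria only wells and 100% = bacteria with antibiotic wells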
YopH PTP inh = blocks Yersinia enterocolitica YopH tyrosine phosphatase; inhibition, %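 (about 10 µM by stock and volumes)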; fluorescence Ex485/Em525; hit rate 0.16% among 140,000;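 active = inhibition of 50% or more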;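 note: controls were vehicle for no effect and minimum signal wells for full effect; inactives centre near -20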
Mtb bLac sens = beta-lactam sensitization of Mtb H37Rv; inhibition, % at 25 µM; hit rate 0.27% among 330,000; M. tuberculosis H37Rv growth with meropenem, percent inhibition; hits of this screen are not shown here; AID 434955;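 active = about 74% or more and at least 40 points above the plate without the antibiotic, then above 30% in a dose series; inconclusive = first-round hits that could not be retested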;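 note: growth measured after seven days incubation then overnight dye step; 0% = bacteria only wells and 100% = bacteria with antibiotic; twin plates without the antibiotic show which effects depend on it; some results filed as inactive read as strong as hits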
RecA splice inh = blocks M. tuberculosis RecA intein splicing; P9WHJ3; cell-free RecA intein splicing, fluorescence; hit rate 0.75% among 290,000; AID 2221; inhibition, %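 (about 9 µM by stock and volumes)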; in the data active = inhibition above about 30%; inconclusive = no clear call, values can overlap the other calls;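 note: 0% = vehicle wells and 100% = reference inhibitor control wells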
Target sequence (P9WHJ3 whole entry, looked up, canonical isoform): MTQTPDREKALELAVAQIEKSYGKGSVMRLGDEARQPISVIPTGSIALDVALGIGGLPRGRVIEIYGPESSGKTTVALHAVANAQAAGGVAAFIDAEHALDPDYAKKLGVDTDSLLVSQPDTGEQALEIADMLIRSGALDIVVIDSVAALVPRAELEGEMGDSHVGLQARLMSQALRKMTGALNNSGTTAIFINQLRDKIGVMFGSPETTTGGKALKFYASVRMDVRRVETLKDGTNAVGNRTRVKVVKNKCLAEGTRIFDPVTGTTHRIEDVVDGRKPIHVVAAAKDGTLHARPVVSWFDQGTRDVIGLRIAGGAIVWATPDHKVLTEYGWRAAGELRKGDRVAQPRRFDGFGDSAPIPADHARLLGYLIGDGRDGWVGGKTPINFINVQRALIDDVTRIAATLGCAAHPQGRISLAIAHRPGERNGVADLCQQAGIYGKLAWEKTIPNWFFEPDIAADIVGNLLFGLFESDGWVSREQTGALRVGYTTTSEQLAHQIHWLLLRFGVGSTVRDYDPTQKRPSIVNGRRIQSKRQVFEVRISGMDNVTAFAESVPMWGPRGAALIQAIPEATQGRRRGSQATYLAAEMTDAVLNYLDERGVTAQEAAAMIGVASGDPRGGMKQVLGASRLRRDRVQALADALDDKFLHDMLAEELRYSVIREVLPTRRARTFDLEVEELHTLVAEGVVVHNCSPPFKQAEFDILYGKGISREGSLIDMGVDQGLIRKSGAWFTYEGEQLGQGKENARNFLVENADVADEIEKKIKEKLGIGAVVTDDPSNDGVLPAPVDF
Arbovirus inh = antivirals against arbovirus infection. arbovirus infection cell-based antiviral screen. inhibition, % at 10 µM. hit rate 0.37% among 200,000;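 active = inhibition from about 30%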;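 note: bluetongue infection of BSR cells; cell survival read as ATP light after 72 h; 0% = infected wells without compound and 100% = uninfected wells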
Arbovirus inh repeat = recorded beside Arbovirus inh, whose call it bears; inhibition, %; measured here: 10K subset replicate screen; many hits read low in the repeat;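 first of two repeat runs on a subset; 0% = infected and 100% = uninfected wells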
Numbers without * were called inactive; u = inconclusive; x = not tested or not shown. An excerpt; count on the stated rates, not on these rows.

SMILES	Mtb H37Rv	YopH PTP inh	Mtb bLac sens	RecA splice inh	Arbovirus inh	others
CCCC(=O)NC(Nc1ccc(S(=O)(=O)Nc2cc(C)on2)cc1)(C(F)(F)F)C(F)(F)F	11%	-11	86	0.3	7
C=CCc1cc(/C=N/NC(=O)CSc2nnc(CCCc3ccc(OC)cc3)o2)cc(OC)c1O	7%	-17	70	2.3	8
COCC(=O)Nc1sc2c(c1C(=O)OC)C(C(=O)OC)CC2 (stereo not drawn)	4%	-21	-10	1.8	-4
Cc1ccccc1NS(=O)(=O)c1ccc(OCCNS(C)(=O)=O)cc1	3%	-27	4	5.3	4
Cc1ccc(-n2c(CNc3ccc(F)cc3)nnc2SCC(N)=O)cc1	0%	-16	1	-0.3	4
O=C(OCC(=O)N1CCCCCC1)c1n[nH]c(=O)c2ccccc12	1%	-41	-4	-1.2	1
CN1CCN(c2ccc(C(CC(N)=O)NC(=O)Cc3ccc(Br)cc3)cc2[N+](=O)[O-])CC1 (stereo not drawn)	-12%	x	-8	0.6	x
CCOc1ccc2nc(NC(=O)Cn3cnc4c3c(=O)n(C)c(=O)n4C)sc2c1	64%	-30	-9	-3.7	-4
COC(=O)c1ccc(Nc2ncnc3c2cnn3-c2cccc(C)c2)cc1	x	x	-1	-2.4	5	Arbovirus inh repeat=-6
O=C(CS(=O)(=O)c1ccccc1)Nc1nnc(Cc2ccccc2)s1	x	x	-3	19	x
COCCNC(=S)N(CCc1c(C)[nH]c2ccc(OC)cc12)Cc1cccnc1	x	x	-6	0.2	x
CC(C)CC(=O)NC(=S)Nc1ccc(S(=O)(=O)N2CCCC2)cc1	3%	x	-2	-3.1	0
O=S(=O)(Nc1ccc(-c2nnc(SCc3ccc(Cl)cc3)o2)cc1)c1ccccc1	6%	-1	2	-2.0	31*
COC(=O)c1cc(-c2ccc(F)cc2)n(-c2ccccc2)n1	x	x	4	5.9	x
CC(=O)Nc1ccc(S(=O)(=O)NC2(C(F)(F)F)C(=O)NC(C)=C2C#N)cc1 (stereo not drawn)	3%	x	1	-2.9	3
COc1cc(C2C3C(=O)N(c4ccccc4)C(=O)C3ON2c2ccccc2)cc(OC)c1OC (stereo not drawn)	9%	-31	-5	x	10
CC(=O)Nc1c(C#N)c(C(C)(C)C)cn1C	4%	-3	-2	0.7	1
COc1ccc(C(=O)CCNc2cccc(Cl)c2)cc1	11%	-4	3	-1.4	8
CNC(=O)C1=C(C)Nc2nc3ccccc3n2C1c1ccc(F)cc1 (stereo not drawn)	-2%	x	-2	0.2	x
O=C1COc2ccc(S(=O)(=O)N3CCN(c4cccc(Cl)c4)CC3)cc2N1	x	x	6	3.1	x
COc1ccc(OC)c(NC(=O)C(CC(=O)O)NCc2ccco2)c1 (stereo not drawn)	-8%	-37	-8	1.1	11
CCC(C)(C(=O)NC1CCCCC1)N(CC1CCCO1)C(=O)c1ccccn1 (stereo not drawn)	-7%	-22	-5	0.7	2
Cc1cc(COC(=O)C2N3C(=O)[C@@H](NC(=O)COc4ccccc4)[C@H]3SC2(C)C)on1 (stereo partly drawn)	x	x	-6	-2.3	x
O=c1[nH]c(/C=C/c2cccc3ccccc23)nc2ccccc12	-2%	x	7	-144	-6
CCNc1ccc(S(=O)(=O)N(C)C)cc1NCC(=O)Nc1ccccc1Br	1%	x	-4	-7.2	3
CCN1CNC(=S)N(Cc2ccccc2)C1	1%	-21	-2	-6.3	5
CN(C)c1ccc(/C=N/NC(=O)CN2CCCCC2)cc1Br	x	x	-5	2.8	x
CCOC(=O)c1sc2nc(NC(=O)C(C)(C)C)sc2c1C	x	-31	34	-5.5	8	Arbovirus inh repeat=2
Cc1cc(NC(=O)c2noc3c2CCCCC3)nn1Cc1ccc(Cl)cc1	-7%	-22	-13	-1.8	5
O=C(CCc1nnc(C2CCCCC2)o1)NCc1cccc(-n2cccn2)c1	-1%	x	-1	-8.7	-1
CCOc1ccc(Oc2nc(NCC(C)C)nc(OC)n2)nn1	-3%	-6	-3	1.2	2	Arbovirus inh repeat=0
CC(NC(=O)c1ccccc1)c1nc2ccccc2n1Cc1ccc(C#N)cc1 (stereo not drawn)	1%	-31	-1	1.4	11
Cc1ccc(C(O)c2ccncc2)cc1 (stereo not drawn)	-3%	-14	5	-0.4	1
CCOC(=O)c1[nH]c2ccc(F)cc2c1NC(=O)c1cc(OC)c(OC)c(OC)c1	-4%	-19	-10	-1.8	3
COc1ccc(Nc2nc3[nH]c(=O)cc(O)c3s2)cc1	2%	x	3	-4.5	16
Cc1oc(/N=C/c2cccc3ccccc23)c(C#N)c1C	6%	-25	-18	0.0	5
O=C(NCc1ccc2c(c1)OCO2)C(=O)NCC1OCCCN1S(=O)(=O)c1ccc(F)cc1 (stereo not drawn)	x	x	-10	1.7	x
CC(C)CN(CC(C)C)S(=O)(=O)N1CCC(C(=O)N2CCc3ccccc3C2)CC1	-4%	-5	0	-2.2	0
CCNC(=O)NC(=O)C(C)Sc1ncc(C(F)(F)F)cc1Cl (stereo not drawn)	1%	x	-1	-1.9	2
Cc1cc2cc(CNC(=O)C(C)Oc3ccccc3)ccc2n1C (stereo not drawn)	11%	x	u	-0.3	x
Cc1ccc(NC(=O)CCNS(=O)(=O)c2ccc3[nH]c(=O)oc3c2)cc1C	x	x	7	-1.4	x
O=C(NNC(=O)c1cc2ccccc2oc1=O)c1ccccc1[N+](=O)[O-]	x	x	1	2.4	x
C=C1CCN([C@@H](Cc2ccccc2)C(=O)NC2CCN(Cc3ccccc3)CC2)S(=O)(=O)c2ccccc21	8%	x	-17	0.2	x
O=C(CNC(=O)c1ccc(Br)cc1)N/N=C/c1cccnc1	x	x	-9	-2.7	x
Cc1cc(C(=O)COC(=O)Cn2c(C(F)(F)F)nc3ccccc32)c(C)n1Cc1ccco1	-4%	-18	-2	1.1	-10
Cc1ccc(OCC(O)CNC2CCCC2)cc1C (stereo not drawn)	x	x	-10	-1.8	x
CN(Cc1ccccc1)C(=O)c1ccccc1-c1ccccc1	-3%	x	5	3.7	9
Cc1ccc(C)c(-c2nc3ccc(N)cc3[nH]2)c1	-4%	34	-2	0.6	-7
NC(=O)NC(=O)COC(=O)[C@H](Cc1ccccc1)NC(=O)c1cccs1	2%	x	-5	-0.6	0
CC(/C=C(\NC(=O)c1ccccc1)C(=O)N=Nc1c(O)[nH]c2ccc(C)cc12)=C\c1ccccc1	u	-21	x	4.8	-20

(further entries)
SMILES	Mtb H37Rv	YopH PTP inh	Mtb bLac sens	RecA splice inh	Arbovirus inh	others
O=C(NCCC(=O)N1CCN(c2ncccn2)CC1)c1ccccc1	-15%	-22	-10	1.3	-1
Cc1ccc(-c2n[nH]c3c2C(c2ccccc2)N(c2ccc(C(=O)O)cc2)C3=O)cc1 (stereo not drawn)	3%	x	9	8.4	x
CCOC(=O)CSC1=C(C#N)C(c2ccc(C)cc2)C2=C(CCCC2=O)N1 (stereo not drawn)	2%	-32	99	-3.4	5
COc1cccc(C(=O)NCC(=O)N/N=C/c2ccc(OC(=O)c3cccs3)c(OC)c2)c1	4%	-22	-3	19	2
CCOc1ccccc1C(=O)NC(C)CCc1ccccc1 (stereo not drawn)	x	x	2	-0.7	x
CC(=NCC1CCCO1)c1c(O)n(-c2ccccc2)c(=O)[nH]c1=O (stereo not drawn)	-11%	-13	1	-1.2	2
COc1cc(C(=O)NC(=S)Nc2ccc3[nH]c(=O)[nH]c3c2)cc(OC)c1OC	x	x	3	-1.8	x
COc1ccc(C2CC(c3ccccc3)=NN2c2ccc(N)cc2)cc1 (stereo not drawn)	10%	11	83	-38	-1
N#C/C(=C\c1ccc[nH]1)Sc1nc2ccccc2s1	9%	-53	3	1.2	-41
c1coc(-c2nn3c(-c4ccco4)nnc3s2)c1	x	-42	2	-1.6	-3
CC/C(=N\NC(=O)c1cc(C2CC2)[nH]n1)c1ccccc1	x	x	1	-1.0	x
CCOC(=O)C(=CNNc1ccccc1)C(=O)OCC	-8%	x	10	1.5	x
COc1cc(/C=N/NC(=O)c2cc(C)n(-c3ccc(F)cc3)c2C)cc(OC)c1O	1%	x	13	-0.2	5
CS(=O)c1ccccc1-c1nc(-c2cccc(Cl)c2)no1 (stereo not drawn)	-4%	x	73	-0.5	9
COc1cccc(N2CCN(Cc3nnnn3C3CCCCC3)CC2)c1	-2%	x	-8	-0.2	-2
CC(=O)Nc1ccc(S(=O)(=O)NCCSCc2c(Cl)cccc2Cl)cc1	1%	2	-2	-3.1	-7
CC1CCCN(C(=O)CN2C(=O)C(C)Oc3ccccc32)C1 (stereo not drawn)	x	x	-3	0.0	x
CC(C)OCCCNC(=O)CCCC(=O)Nc1ccc(OCCc2ccccc2)cc1	x	x	-2	1.0	x
COc1ccc(NC(=S)N2CCC(c3nc4ccccc4[nH]3)CC2)c(OC)c1	-6%	-24	-3	1.8	10
COCCNC(=O)CCCn1c(=O)c2cc(OC)c(OC)cc2n(CC(=O)Nc2ccc(C)c(F)c2)c1=O	-3%	x	-5	3.6	7

Already shown: an excerpt of the list.
SMILES	Mtb H37Rv	YopH PTP inh	Mtb bLac sens	RecA splice inh	Arbovirus inh	others
COc1ccc(C2CC(c3ccccc3)=NN2c2ccc(N)cc2)cc1 (stereo not drawn)	10%	11	83	-38	-1
N#C/C(=C\c1ccc[nH]1)Sc1nc2ccccc2s1	9%	-53	3	1.2	-41
c1coc(-c2nn3c(-c4ccco4)nnc3s2)c1	x	-42	2	-1.6	-3
CC/C(=N\NC(=O)c1cc(C2CC2)[nH]n1)c1ccccc1	x	x	1	-1.0	x
CCOC(=O)C(=CNNc1ccccc1)C(=O)OCC	-8%	x	10	1.5	x
COc1cc(/C=N/NC(=O)c2cc(C)n(-c3ccc(F)cc3)c2C)cc(OC)c1O	1%	x	13	-0.2	5
CS(=O)c1ccccc1-c1nc(-c2cccc(Cl)c2)no1 (stereo not drawn)	-4%	x	73	-0.5	9
COc1cccc(N2CCN(Cc3nnnn3C3CCCCC3)CC2)c1	-2%	x	-8	-0.2	-2
CC(=O)Nc1ccc(S(=O)(=O)NCCSCc2c(Cl)cccc2Cl)cc1	1%	2	-2	-3.1	-7
CC1CCCN(C(=O)CN2C(=O)C(C)Oc3ccccc32)C1 (stereo not drawn)	x	x	-3	0.0	x
CC(C)OCCCNC(=O)CCCC(=O)Nc1ccc(OCCc2ccccc2)cc1	x	x	-2	1.0	x
COc1ccc(NC(=S)N2CCC(c3nc4ccccc4[nH]3)CC2)c(OC)c1	-6%	-24	-3	1.8	10
COCCNC(=O)CCCn1c(=O)c2cc(OC)c(OC)cc2n(CC(=O)Nc2ccc(C)c(F)c2)c1=O	-3%	x	-5	3.6	7

Next section:
SMILES	Mtb H37Rv	YopH PTP inh	Mtb bLac sens	RecA splice inh	Arbovirus inh	others
COc1cc(NC(=O)c2cc(CC(C)C)on2)c(OC)cc1Cl	6%	-21	-7	-0.6	0
Cc1onc(-c2ccccc2)c1C(=O)NCC(O)c1ccccc1 (stereo not drawn)	-14%	x	-6	2.6	x
CC(=O)Nc1ccc(S(=O)(=O)N2CCC(N3CCCC3)CC2)cc1	x	x	-6	0.1	x
CC(C)CCN(C)c1ccc(/C=N/n2cnnc2)cc1	-3%	-5	79	x	-25
CCC(C)N(C(=O)COC(=O)CNC(=O)c1sc2ccccc2c1Cl)C1CCS(=O)(=O)C1 (stereo not drawn)	x	x	-1	-3.0	x
CCC(CC)C(=O)c1c[nH]c(C(=O)NC2CCCCCC2)c1	x	x	-9	4.2	x
COc1cc2c(cc1OC)C(c1cccc([N+](=O)[O-])c1)N(C(=O)c1ccc(F)cc1)CC2 (stereo not drawn)	-1%	-39	-12	7.0	-1
Cc1ccc(S(=O)(=O)c2c(C)c(C)c(C)[nH]c2=O)cc1	x	x	6	-0.6	x
Oc1ccc(C[C@@H]2CNCCN2CCc2cc(C(F)(F)F)cc(C(F)(F)F)c2)cc1	x	x	-4	-1.5	x
CCC(C)Oc1cccc(OCCCCN2C(=O)NC(C)(C)C2=O)c1 (stereo not drawn)	3%	23	-2	1.8	-2
O=C(COc1coc(CN2CCN(c3ccccc3)CC2)cc1=O)Nc1ccccc1F	x	x	8	-0.7	x
Nc1ccc(C(=O)Nc2nccs2)cc1	-8%	x	-5	-1.8	-8
CN1C(=O)/C(=C\C(=O)c2cccs2)c2ccccc21	u	x	x	-12	-32
